Screening results from PubChem.
PrP UTR inh – suppresses PrP 5' UTR mRNA reporter expression. inhibition, % (concentration not given with the values). cell-based PrP 5' UTR mRNA reporter, plate reader. 340,000 tested, 0.35% active;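 active = every replicate at 50% or more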;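 also: 0 = median of the neutral control wells; tested in H4 reporter cells; numbers are from one replicate; inactives centre near -14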
Sa RN4220 lethal – S. aureus RN4220 growth inhibition. OD600, 16 h. AID 1259311. inhibition, % (concentration not given with the values). 330,000 tested, 0.33% active;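 active = z-score of -3 or lower and OD600 up to 0.18 on both plates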;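 also: plate controls were untreated cells for no effect and reference antibiotic for full effect; stock transfer was 100 nL into about 80 µL; one replicate is shown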
Mtb hypoxia inh – inhibitors of hypoxia-regulated fluorescent reporter in Mycobacterium tuberculosis; M. tuberculosis hypoxia-regulated fluorescent reporter, fluorescence; fluorescence inhibition, % (concentration not given with the values); 300,000 tested, 0.1% active;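 active = 35 to 45% if threefold the growth effect, above 45% if 1.5-fold the growth effect; inactive = the rest, general growth blockers included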;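 also: wells of about 50 µL received 100 nL stock; 0% = vehicle wells and 100% = reference inhibitor wells; whole bacteria with a GFP reporter of the hypoxia response; strong numbers were not always called active; many hits fall short of the cut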
BJeLR lethal – BJeLR cell viability loss; BJeLR (HRASV12) viability, CellTiter-Glo ATP luminescence, 48 h; reference of the scale not given here; inhibition, % (test concentration not listed); 300,000 tested, 0.17% active; AID 1554;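 active = replicate mean above 50%; inconclusive = above 50% but judged a plate artefact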;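 also: 50 nL library stock added to about 25 µL; numbers are from one replicate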
Sa ugtP lethal – growth inhibition of S. aureus ugtP deletion strain; growth inhibition, % (test concentration not listed); AID 1259309; 330,000 tested, 0.54% active; S. aureus RN4220 ugtP deletion, OD600 growth, 16 h; some inactives read as strong as hits;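 active = z-score under -3 and OD600 up to 0.15 on both plates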;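 also: plate controls were untreated wells for no effect and antibiotic for full effect; wells of about 80 µL received 100 nL stock; the first replicate is given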
Autofluor counter – counter-screen for toxin protease inhibitors: compound fluorescence | compound autofluorescence counterscreen, microsphere flow cytometry; hits give high values | fluorescence intensity (test concentration not listed) | 360,000 tested, 3.1% active;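 active = at least 3 SD above the mean of all compounds, about 16000 in these data; inconclusive = too few beads counted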;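 also: 100 nL of 1 mM stock went into each well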
Mtb hypoxia inh growth – further read-out of Mtb hypoxia inh, marked with its call; growth inhibition, %; measured here: M. tuberculosis growth (absorbance);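 0% = vehicle and 100% = reference antibiotic; read after six days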
* marks the source's active call; other numbers are inactive results; ? = inconclusive; / = no result given.

1: CCOC(=O)N1CCC(=NNC(=O)COc2ccc(C#N)cc2)CC1
2: COc1ccccc1N1CC(C(=O)Nc2nnc(SCC(=O)NC(C)C)s2)CC1=O (configuration not stated)
3: CCn1c(C(C)NC(=O)c2cccs2)n[nH]c1=S (configuration not stated)
4: COC(=O)[C@@H](c1ccccc1)N(C)S(=O)(=O)c1cccc(S(=O)(=O)N(C)[C@@H](C(=O)OC)c2ccccc2)c1
5: Nc1nc2nc(-c3ccccc3)cc(C(F)(F)F)c2s1
6: CN(C)S(=O)(=O)N1CCN(S(=O)(=O)N(C)C)CC1
7: O=C(NCCN1C(=O)C2C3C=CC(C3)C2C1=O)N1CCCCC1 (configuration not stated)
8: CN(C(=O)c1cccc(NC(=O)Cc2ccc(NC(=O)C3CCCN(C(=O)C4CC4)C3)cc2)c1)C1CCCC1 (configuration not stated)
assay / entry,1,2,3,4,5,6,7,8
PrP UTR inh,-20,-2,-6,-4,-8,4,-12,2
Sa RN4220 lethal,3.3,0.7,2.7,/,2.4,4.4,-0.3,1.5
Mtb hypoxia inh,4,3,11,/,0,8,/,-2
Mtb hypoxia inh growth,4,5,2,/,8,12,/,-2
BJeLR lethal,-5,-15,-9,12,-9,3,7,/
Sa ugtP lethal,11,4,3,/,2,6,0,5
Autofluor counter,9570,3190,6524,3997,6070,6453,6256,3424

An excerpt from above, showing only Sa RN4220 lethal and Mtb hypoxia inh.
no.	smiles	Sa RN4220 lethal	Mtb hypoxia inh
7	O=C(NCCN1C(=O)C2C3C=CC(C3)C2C1=O)N1CCCCC1 (configuration not stated)	-0.3	/
5	Nc1nc2nc(-c3ccccc3)cc(C(F)(F)F)c2s1	2.4	0
6	CN(C)S(=O)(=O)N1CCN(S(=O)(=O)N(C)C)CC1	4.4	8

Next section.
9: O=C(Nc1ccccc1N1CCOCC1)C1CCCO1 (configuration not stated)
10: COc1ccc(OC)c(C(O)c2coc3ccc(O)c(CN4CCOCC4)c23)c1 (configuration not stated)
11: CC(C)NCC(=O)Nc1c2c(nc3ccccc13)CCC2
12: O=C(COC(=O)CCc1nc2ccccc2c(=O)[nH]1)Nc1c(Cl)cccc1C(F)(F)F
13: CC1Cc2cc(S(=O)(=O)N3CCCCC3)ccc2N1C(=O)C1CCC1 (configuration not stated)
14: Cc1c(C#N)c(NC(=O)CCl)n(Cc2cccs2)c1C
15: COc1cc(NS(C)(=O)=O)c(OC)cc1NC(=O)c1cccc(F)c1
16: CC1(C)Cc2c(c(N3CCCC3)nc3sc(C(=O)Nc4ccccc4)c(N)c23)CO1
assay / entry,9,10,11,12,13,14,15,16
PrP UTR inh,-23,-11,-13,-21,-7,-13,-18,-8
Sa RN4220 lethal,2.0,0.7,0.8,1.2,2.7,35,4.0,9.3
Mtb hypoxia inh,6,4,4,1,2,24,0,0
Mtb hypoxia inh growth,2,5,4,4,8,27,-1,1
BJeLR lethal,/,14,-12,-7,-1,4,-2,1
Sa ugtP lethal,0,-1,1,3,1,13,7,-17
Autofluor counter,3643,7936,3914,5149,5272,4774,9193,5290

Entries of single compounds, looked up by structure. Order of values: PrP UTR inh | Sa RN4220 lethal | Mtb hypoxia inh | Mtb hypoxia inh growth | BJeLR lethal | Sa ugtP lethal | Autofluor counter
O=C(NCCN1C(=O)C2C3C=CC(C3)C2C1=O)N1CCCCC1 (configuration not stated) is entered as -12 | -0.3 | / | / | 7 | 0 | 6256
CCOC(=O)N1CCC(=NNC(=O)COc2ccc(C#N)cc2)CC1 is entered as -20 | 3.3 | 4 | 4 | -5 | 11 | 9570
CN(C(=O)c1cccc(NC(=O)Cc2ccc(NC(=O)C3CCCN(C(=O)C4CC4)C3)cc2)c1)C1CCCC1 (configuration not stated) is entered as 2 | 1.5 | -2 | -2 | / | 5 | 3424
CC1(C)Cc2c(c(N3CCCC3)nc3sc(C(=O)Nc4ccccc4)c(N)c23)CO1 is entered as -8 | 9.3 | 0 | 1 | 1 | -17 | 5290

(continued)
17: CCC(CC)C(=O)Nc1cc(OC)c(OC)cc1C(=O)O
18: Cc1ccc(SCC(CC(C)C)N2CCN(C)CCC2=O)cc1 (configuration not stated)
19: Cc1ccc2c(c1)C1CN(C)CCC1N2S(=O)(=O)c1cccc(F)c1 (configuration not stated)
20: Cc1ccc(NCc2nnc(SCC(=O)NNC(=O)Cc3ccccc3)n2C)cc1
21: Cc1nnc(NC(=O)CSc2nnc(CNC(=O)C34CC5CC(CC(C5)C3)C4)n2C2CCCCC2)s1
22: COc1ccccc1CNC(=O)CNCCc1ccc(OC)c(OC)c1
23: CCOc1ccc(OCCOC(=O)CN2C(=O)NC3(CCCC3)C2=O)cc1
24: O=C(O)CC1S/C(=N/N=C/c2ccc(Br)cc2)N(c2ccccc2)C1=O (configuration not stated)
assay / entry,17,18,19,20,21,22,23,24
PrP UTR inh,-7,/,-9,-7,-10,-9,-20,-16
Sa RN4220 lethal,-3.2,10,6.8,0.9,15,1.8,0.1,/
Mtb hypoxia inh,-5,2,-1,1,4,1,8,/
Mtb hypoxia inh growth,5,7,-5,3,-3,3,-7,/
BJeLR lethal,2,/,/,13,-8,-12,-8,0
Sa ugtP lethal,-1,3,6,2,16,2,8,/
Autofluor counter,4358,/,4260,4745,6773,4339,6121,4337

25: Cc1cccc(OCc2nc(-c3nonc3N)no2)c1C
26: O=C(OCn1nnc2ccccc2c1=O)c1ccc(N2CCOCC2)c([N+](=O)[O-])c1
27: CN(CC(=O)Nc1ccc(F)c(F)c1F)C(=O)c1cc(-c2ccncc2)nc2ccccc12
28: CCOc1ccc(C(C)=O)cc1CSc1nc2nc(C)cc(C)n2n1
29: Cc1sc2nc(CSc3cccc(C(F)(F)F)c3)[nH]c(=O)c2c1C
30: CC1(c2ccccc2)NC(=O)N(CC(=O)Nc2ccc(C(N)=O)cc2)C1=O (configuration not stated)
31: COc1ccc(NC(=O)CN2CCC(C)CC2)c([N+](=O)[O-])c1
32: NC(=NCCc1ccc(Cl)cc1)NS(=O)(=O)c1ccccc1
assay / entry,25,26,27,28,29,30,31,32
PrP UTR inh,-26,-9,-34,-12,-9,-25,-31,-9
Sa RN4220 lethal,1.9,4.9,-3.2,5.9,/,-1.3,3.3,2.6
Mtb hypoxia inh,-1,6,-3,-1,/,0,4,-7
Mtb hypoxia inh growth,2,-2,2,-8,/,-3,8,0
BJeLR lethal,/,-7,10,-7,-2,8,-4,0
Sa ugtP lethal,-7,6,-6,10,/,-8,-1,-4
Autofluor counter,22795*,1979,?,4597,2071,5946,12578,6881

33: CC(OC(=O)C1=Cc2ccccc2OC1)C(=O)NC(C)(C)C (configuration not stated)
34: CCCCCCCCN1[C@@H](CC(=O)OCC)c2cc(C(F)(F)F)ccc2S1(=O)=O
35: COc1ccc(NC(=O)Nc2ccccc2C(N)=O)cc1OC
36: O=C(Nc1ccc2snnc2c1)N1CCN(c2ccccc2)CC1
37: O=C(Nc1ccccc1)/C(=C/c1cccnc1)NC(=O)c1ccco1
38: CC(=O)N1c2ccccc2CCc2ccc(N)cc21
39: NC(=O)c1ccccc1OCC(=O)Nc1cccnc1Cl
40: COc1cccc(CNc2nc3ccccc3n2CCN2CCCCC2)c1OC
assay / entry,33,34,35,36,37,38,39,40
PrP UTR inh,-11,-6,-7,-23,0,-11,-15,-2
Sa RN4220 lethal,6.5,/,-0.2,-0.9,-5.0,-1.2,-1.4,1.4
Mtb hypoxia inh,-5,/,1,-1,-9,6,-5,/
Mtb hypoxia inh growth,-7,/,3,11,-9,2,8,/
BJeLR lethal,-27,8,/,-6,8,-4,/,/
Sa ugtP lethal,5,/,4,-7,0,2,-2,4
Autofluor counter,4252,4162,9821,10866,2190,4017,3616,4688

41: CN(C)c1ccc(C(=S)N2CCN(Cc3ccccc3)CC2)cc1
42: CCc1ccc(CN(C)C(=O)CC2C(=O)NCCN2Cc2ccoc2)cc1 (configuration not stated)
43: Cc1ccc(-n2nnnc2-c2cccc(C)c2)cc1
44: O=C1/C(=C/c2cccs2)SC(=S)N1CCC(=O)N1CCCCC1CCO (configuration not stated)
45: CC(=O)NC(=O)c1ccc(-c2ccc(Cl)cc2)o1
46: CC(Sc1nc(-c2ccccc2)cc(C(F)(F)F)n1)C(=O)NCCN1CCOCC1 (configuration not stated)
47: CC(C)(C)OC(=O)N1CCC(NC(=O)c2[nH]cnc2C(=O)Nc2ccc(Cl)cc2)CC1
48: Cc1cccc(C)c1OCC(=O)NCc1ccccc1
assay / entry,41,42,43,44,45,46,47,48
PrP UTR inh,-24,-36,-16,-11,-40,-33,8,-12
Sa RN4220 lethal,6.8,2.3,5.0,-0.2,1.8,3.4,-6.3,0.4
Mtb hypoxia inh,3,10,9,-6,3,6,17,5
Mtb hypoxia inh growth,4,13,3,10,14,1,11,8
BJeLR lethal,-6,-11,-3,-4,6,-2,/,0
Sa ugtP lethal,1,9,1,-5,3,4,-42,6
Autofluor counter,3954,4452,3810,5770,2104,5938,3021,4405

49: COc1ccccc1C=NN1CCN(c2ccc(Cl)cc2)CC1
50: C=CCC1(CC=C)CCCN1C(=O)c1cc(COc2ccc(-n3cncn3)cc2)on1
51: CC(c1ccccc1)N1C(=O)c2ccc(C(=O)Nc3ccccc3C(=O)O)cc2C1=O (configuration not stated)
52: CCOc1ccc(-c2cc(CCCC(=O)Nc3cccc(OC)c3)no2)cc1
53: O=C(O)CCC(=NNC(=O)c1cccc(S(=O)(=O)N2CCCCC2)c1)c1ccccc1
54: Cc1cccc(N2CCN(C(=O)c3cc4ccccc4oc3=O)CC2)c1C
55: COc1ccc2nc(C(F)(F)Cl)c(C#N)c(N)c2c1
56: COc1ccc(CCNC(=O)Cn2c(-c3nonc3N)nc3ccccc32)cc1OC
57: CC(C(=O)O)N(C(=O)c1ccccc1)c1ccc(F)cc1 (configuration not stated)
assay / entry,49,50,51,52,53,54,55,56,57
PrP UTR inh,/,-20,-11,26,-2,-14,0,-17,-5
Sa RN4220 lethal,7.7,14,29,-6.7,4.7,-11,-6.0,3.4,3.6
Mtb hypoxia inh,-1,5,9,1,-1,8,-1,/,-5
Mtb hypoxia inh growth,12,3,0,17,-2,8,11,/,5
BJeLR lethal,/,2,0,5,/,12,-4,-10,-6
Sa ugtP lethal,-5,3,7,-15,9,-4,6,8,6
Autofluor counter,/,4808,4589,4304,4356,4689,4364,3957,3523
